# Screening results as filed in PubChem.
# StopGo reporter: FMDV 2A StopGo reporter, luciferase signal; Potency, µM (doses to about 57.9 µM), for inactives: at the highest dose signal change, negative = less light; AID 1159524; human cells with a luciferase reporter of 2A StopGo recoding; control for the full effect not named in the record; hit rate 1.2% among 410,000; active = well fitted falling curve with a large enough effect; inconclusive = small, poorly fitted or top-dose-only effect; inactive = no such curve, though single readings can be large or run the other way; tested in HEK293T cells; also: % is scaled to controls: 0 for no effect and ±100 for the full control effect; nearly all actives have a fitted effect of over 45% in size; luciferase light after 4 h
# Cruzain noTriton: inhibitors of Trypanosoma cruzi cruzain without detergent | purified cruzain, Z-FR-AMC fluorescence, no detergent | Potency, µM, inactives show max response, negative = inhibition, hits mostly inhibitors | hit rate 2.3% among 200,000 | AID 1476;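 also: plate controls were enzyme without inhibitor for no effect and buffer without enzyme for full effect; nearly all actives have a fitted effect of over 40% in size; top concentration of the series not given in the record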
# Target sequence (P25779 123-467 limits assumed): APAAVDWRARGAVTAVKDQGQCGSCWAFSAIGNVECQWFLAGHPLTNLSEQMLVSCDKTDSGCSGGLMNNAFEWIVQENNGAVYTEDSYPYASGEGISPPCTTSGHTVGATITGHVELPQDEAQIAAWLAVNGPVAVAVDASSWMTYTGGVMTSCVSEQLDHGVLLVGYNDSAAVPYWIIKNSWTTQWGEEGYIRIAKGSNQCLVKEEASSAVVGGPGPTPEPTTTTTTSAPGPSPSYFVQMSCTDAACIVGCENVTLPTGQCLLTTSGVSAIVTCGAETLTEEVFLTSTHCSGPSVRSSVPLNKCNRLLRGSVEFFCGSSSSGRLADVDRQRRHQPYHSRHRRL
#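 Detergent-free condition (0.00005% Triton X-100) in acetate buffer pH 5.5 with DTT. 1.5 nM enzyme and compound were pre-mixed 15 min, then 2 uM Z-FR-AMC substrate added; reaction progress from fluorescence change between first and third reads (60 s).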
# LASV entry inh: blocks Lassa virus binding to or entry into cells. Lassa virus pseudotype entry inhibition, cell reporter; control for the full effect not named in the record. Potency, µM (top dose mostly 37.9 µM), for inactives: at the highest dose activity change, negative = inhibition, usual class: inhibitors. hit rate 1.2% among 300,000. AID 540256; active means well fitted inhibition curve with a large enough effect; inconclusive means small, poorly fitted or top-dose-only effect, or effect the other way; inactive means flat fitted curve, though single readings scatter; tested in HEK293 cells; also: % is scaled to controls: 0 for no effect and ±100 for the full control effect; nearly all actives have a fitted effect of over 50% in size; luciferase read-out
# Cruzain Triton: inhibitors of Trypanosoma cruzi cruzain with detergent; hit rate 0.43% among 200,000; purified cruzain, Z-FR-AMC fluorescence, 0.01% Triton; P25779; Potency, µM, for the others: max response, negative = inhibition, hits mostly inhibitors;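 also: plate controls were neutral wells for no effect and buffer without enzyme for full effect; nearly all actives have a fitted effect of over 40% in size; top concentration of the series not given in the record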
#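 15 min RT preincubation of 1.5 nM cruzain with compound, then 2 uM Z-FR-AMC added; kinetic AMC fluorescence, 60 s delta. Triton X-100 0.01%, pH 5.5.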
# SARS PLpro yeast: blocks SARS-CoV papain-like protease in a yeast assay | S. cerevisiae expressing SARS-CoV PLpro, growth rescue; control for the full effect not named in the record | Potency, µM (highest dose often 32.9 µM), for the others: at the highest dose activity, positive = growth rescue | hit rate 0.19% among 330,000; active means well fitted rising curve with a large enough effect; inconclusive means small, poorly fitted or top-dose-only effect; inactive means no such curve, though single readings can be large or run the other way; also: 0% is about no effect; nearly all actives have a fitted effect of over 55% in size; growth read by luminescence after 48 h
# NS1 function inh: inhibitors of influenza NS1 protein function; Potency, µM (series often up to 46.1 µM), for the others: at the highest dose activity, positive = more growth; S. cerevisiae slowed by influenza A NS1, growth recovery by OD600; hit rate 0.4% among 270,000; active means well fitted rising curve with a large enough effect; inconclusive means small, poorly fitted or top-dose-only effect; inactive means no such curve, though single readings can be large or run the other way; also: nearly all actives have a fitted effect of over 50% in size
#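 A cell-based growth assay was used: compounds that relieve NS1-induced slow growth of budding yeast raise OD600. Assay medium was yeast nitrogen base with ammonium sulphate and -URA supplement, pH 6.0, with 2% galactose.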
# Marburg entry inh: inhibitors of Marburg virus binding or cell entry | Potency, µM (doses to about 37.8 µM), for inactives: at the highest dose activity change, negative = inhibition, most hits filed as inhibitors | AID 540276 | Marburg virus pseudotyped entry inhibition, cell reporter; control for the full effect not named in the record; about a third of the inactives were read at about 46 µM | hit rate 1.8% among 300,000; active = well fitted inhibition curve with a large enough effect; inconclusive = small, poorly fitted or top-dose-only effect, or effect the other way; inactive = flat fitted curve, though single readings scatter; tested in HEK293 cells; about a fifth of its hits are not listed in these tables; also: % is scaled to controls: 0 for no effect and ±100 for the full control effect; luciferase read-out
# RE007 growth inh: less growth of the S. pombe RE007 Vpr strain. hit rate 0.21% among 360,000. S. pombe RE007 Vpr strain, BacTiter-Glo ATP luminescence, 24 h; control for the full effect not named in the record. Potency, µM (titrated, usually from 92.2 µM), without a hit: at the highest dose activity change, negative = less growth. AID 651644; active = well fitted falling curve with a large enough effect; inconclusive = small, poorly fitted or top-dose-only effect; inactive = no such curve, though single readings can be large or run the other way;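 also: % is scaled to controls: 0 for no effect and ±100 for the full control effect; nearly all actives have a fitted effect of over 50% in size; the assay follows cell death caused by Vpr and the record does not say whether a fall means rescue or toxicity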
#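 Fission yeast RE007 carrying one integrated HIV-1 vpr copy, seeded at OD 0.01 in PMG+AL medium with 23 nL pinned compound. Grown 24 h at 30 degrees; viability read by BacTiter-Glo luminescence after 5 min.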
# Active calls of the source: *; ? = inconclusive; nt = not tested or not shown; & = joins results of further samples; [ ] = dose if it differs, or a comment. Unless noted, calls follow the shape of the dose curve; as a rule, active = well fitted curve in the direction sought with a large enough effect; inconclusive = small, poorly fitted or top-dose-only effect, or another doubt; inactive = no such curve, though single readings can be large; an effect the other way counts as inactive or inconclusive. Potency is read from the fitted curve at half-maximal effect.
SMILES,StopGo reporter,Cruzain noTriton,LASV entry inh,Cruzain Triton,SARS PLpro yeast,NS1 function inh,Marburg entry inh,RE007 growth inh
Cc1ccc(-c2cc(-c3ccccc3)c(C#N)c(SCC(O)CS(=O)(=O)Cc3ccccc3)n2)cc1 (stereo not drawn),-12%,10µM*,?,-3.4%,nt,nt,nt,nt
Cc1ccc(S(=O)(=O)CCC(=O)Nc2nnc(CC(C)C)s2)cc1,-21%,nt,0%,nt,-4%,nt,?,1%
Cc1sc(NC(=O)CSc2nnnn2C(C)C)c(C#N)c1C,-11%,nt,10%,nt,0%,-24%,-10%,-5%
O=c1ccn(CCc2c[nH]c3ccccc23)c2c1CCCC2,9%,nt,7%,nt,0%,nt,14%[46.1 µM],24%
Cc1sc2nc(CN(C(=O)NCc3ccccc3)C3CCCC3)[nH]c(=O)c2c1C,-20%,nt,?,nt,2%,-2%,?,5%
COc1ccc2ccc3c(c2c1)N=CC1(O3)N(C)c2ccccc2C1(C)C (stereo not drawn),nt,?,0%,-4.1%,-96%,-27%,?,0%
Nc1nonc1-n1nnc(C(=O)N/N=C/c2ccncc2)c1CSc1ccccc1,-6%,nt,nt,nt,3%,0%,nt,0%
COc1ccc2[nH]c(=O)c(CN(C(=O)c3cccnc3)c3cc(C)ccc3C)cc2c1,-19%,nt,?,nt,2%,-7%,-17%[46.1 µM],-1%
O=C(NCCCCc1ccccc1)C1CCCC1,27%,nt,?,nt,-3%,-11%,28%,18%
COc1ccc(S(=O)(=O)CC(O)CN2CCCC2=O)cc1 (stereo not drawn),-20%,0%,18%,1.7%,2%,?,-19%,-6%[3.69 µM]
CCOC(=O)c1c(O)cc(C)cc1Nc1ccccc1,1%,nt,-3%[46.1 µM],nt,-1%,-4%,?,-12%
COc1ccc(-c2nc(C#N)c(NCCc3ccccc3)o2)cc1OC,34%[activator],?,?,-21%,1%,-110%,-20%,1%
COc1ccc(NC(=O)NCc2c(-n3cccc3)sc3c2CCCC3)c(OC)c1,-16%,13%,-4%[46.1 µM],-3.1%,nt,nt,-6%[46.1 µM],nt
Clc1ccc(-c2nnc(CSc3nnc(-c4cccs4)o3)o2)cc1,28%,3%,16%,-2.0%,-5%,-6%,6%[46.1 µM],?
COc1cccc(N2CCN(c3ccc4nnc(CCC(=O)Nc5ccc(OC)c(OC)c5)n4n3)CC2)c1,-8%,nt,-18%[46.1 µM],nt,10%,14%,21%[46.1 µM],4%
Clc1ccccc1Cc1noc(CN2CCCCC2c2ccccn2)n1 (stereo not drawn),-18%,nt,nt,nt,-1%,-2%,nt,-4%
Cn1c(=O)nc2n(-c3ccc(Cl)c(Cl)c3)c3cc(Cl)ccc3cc-2c1=O,5%,-2%,19%[46.1 µM],-0.8%,nt,nt,16%[46.1 µM],nt
COc1ccc(C(OCC(O)CN(C)C2CCCCC2)c2ccc(OC)cc2)cc1 (stereo not drawn),-18%,nt,?,nt,2%,-4%,?,2%
Cc1c(N(C)C)nc2ccccc2c1N,-23%,-10%,6%,-7.5%,0%,3%,5%,-2%
CN(CC(=O)Nc1cccc(F)c1)CC(=O)Nc1ccc(Cl)cc1[N+](=O)[O-],7%,nt,?,nt,-4%,nt,1%[46.1 µM],5%
CC(=O)NCC(=O)Nc1ccc(Br)cc1C(=O)c1ccccc1,11%,nt,-1%,nt,0%,-2%,0%[14.2 µM],-19%
Clc1ccc(CSc2nc3ncccc3[nH]2)cc1,15%,-12%,nt,-1.7%,nt,nt,?,nt
CCc1ccc(C(=O)Nc2cc(C)ccc2F)s1,17%,nt,8%[46.1 µM],nt,-3%,21%,13%[46.1 µM],-3%
CCOc1ccc(CNc2nnnn2C)cc1,11%,nt,nt,nt,?,4%,nt,4%
Cc1oc(-c2cccc(Cl)c2)nc1CN1CCCC(C(=O)NCc2ccco2)C1 (stereo not drawn),-29%,-3%,-21%,3.6%,-1%,-19%,?,-26%
O=C(CS(=O)(=O)Cc1ccccc1)Nc1ccc(Cl)cn1,37%,16%,8%,-1.4%,-19%,-24%,1%,-2%
Clc1cc(/C=N\NC2=NCCN2)cc(Cl)n1,-24%,nt,?,nt,nt,nt,10%[46.1 µM],-5%
Cc1ccc(CNC(=O)CNS(=O)(=O)c2cccs2)cc1,-21%,-9%,-7%[46.1 µM],-0.2%,nt,nt,nt,nt
COc1cc(OC)c(OC)cc1/C=C1\CC(C)C/C(=C\c2cc(OC)c(OC)cc2OC)C1=O (stereo not drawn),13µM*,nt,nt,nt,-2%,23%,nt,7%
O=C(CSc1nc(=O)n2cc(Cl)ccc2n1)NCCc1ccccc1,-5%,nt,10%,nt,1%,nt,-11%,0%
CC(C)OCCCNC(=O)Cc1ccc(Br)cc1,-1%,nt,4%[46.1 µM],nt,1%,nt,6%[46.1 µM],5%
CC(=O)c1sc(N)c(C(=O)OC(C)C)c1C,14%,-1%,?,-4.2%,-10%,-15%,-15%,1%
Cc1nc2ccc(S(=O)(=O)NCC(=O)N3CCN(c4ccccn4)CC3)cc2s1,-27%,-16%,?,-2.1%,2%,5%,-1%,6%
Cc1ccc(S(=O)(=O)N2CCN(CC(=O)N/N=C\c3ccc(Cl)c([N+](=O)[O-])c3)CC2)cc1,-11%,6%,-37%,-4.9%,?,-9%,?,6%
CCN1C(=O)c2ccccc2Sc2ccc(NC(=O)c3ccc(Cl)cc3)cc21,-16%,5%,18%[46.1 µM],0.2%,nt,nt,nt,nt
Cc1ccc(S(=O)(=O)N2CCC(C(=O)NNC(=O)c3cccnc3)CC2)cc1,0%,nt,?,nt,1%,-5%,17%[46.1 µM],4%
Cc1ccc(NC(=O)Cc2ccc(NC(=O)N3CCCCc4ccccc43)cc2)cc1,0%,17%,-14%[46.1 µM],-6.9%,nt,nt,nt,nt
CCOC(=O)c1c(S(=O)(=O)NCCc2ccco2)c(C)n(C)c1C,69%[activator],nt,nt,nt,-2%,18%,nt,3%
COc1ccc(CCNC(=O)CSc2nc3ccccc3c3nc(CCN4CCCCC4)nn23)cc1OC,-4%,nt,23%,nt,-2%,nt,-3%[46.1 µM],0%
CCCN1C2CCCC1CC(NC(=O)c1ccc(Br)cc1)C2 (stereo not drawn),-16%,nt,15%,nt,nt,3%,?,19%
CC(C)(C)c1nc(S(=O)(=O)c2ccc(Cl)cc2)c(N2CCOCC2)o1,-6%,-7%,-14%,-0.6%,-4%,0%,17%,0%
O=C(CNC(=O)c1ccccc1Cl)NCCc1cccs1,40%[activator],nt,?,nt,-7%,nt,17%,12%
O=C(N/N=C/C1CC2CCC1C2)c1ccc2c(c1)OCO2 (stereo not drawn),24%,3%,-6%,-0.2%,9%,-29%,-28%,-11%
C/C(=N\Nc1nc(-c2ccc(C)cc2C)cs1)c1cc2ccccc2oc1=O,-20%,?,4%,-20%,-19%,?,-2%,6%
CCOCCCNC(c1ccccc1)c1ccncc1 (stereo not drawn),2%,nt,nt,nt,-8%,-3%,nt,7%
CSc1ccccc1NC(=O)c1ccc2c(c1)CCN2S(C)(=O)=O,27%,nt,-7%[46.1 µM],nt,0%,-4%,28%[46.1 µM],-8%
COC(=O)c1cn(-c2ccccc2)nc1-c1cccnc1,5%,11%,22%,-1.4%,2%,-12%,?,-5%
CCNC(=O)NC(=O)C(C)N1C(=O)NC(c2ccccc2)(c2ccccc2)C1=O (stereo not drawn),-11%,nt,-6%[46.1 µM],nt,3%,24%,7%[46.1 µM],-4%
Cn1c(N)c(C(=O)COC(=O)/C=C/c2ccccc2Cl)c(=O)n(C)c1=O,24%,nt,3%,nt,1%,nt,5%,-15%
COc1cccc(-c2nnc(SCc3nc4ccccc4[nH]3)n2N)c1,-2%,-17%,?,2.3%,nt,-2%,0%,8%
COc1ccc2cc(CN(Cc3cccs3)Cc3nnnn3Cc3ccccc3)c(=O)[nH]c2c1,-4%,1%,?,-7.5%,-7%,28%,-29%,-2%
CSc1nc(=NC(C)=O)ss1,-15%,-7%,0%,1.3%,-3%,-38%,14%,-6%
COc1ccccc1C(C)NC(=O)Cc1ccsc1 (stereo not drawn),-11%,nt,-3%,nt,0%,-2%,1%[46.1 µM],8%
Cc1cccc(-n2c(C)cc(C(=O)NC3CCCCC3)c2C)c1,-8%,8%,?,1.0%,-22%,15%,?,40%
Cc1nnc(NCc2ccco2)c2ccccc12,-5%,-4%,11%,-1.8%,3%,-1%,-1%,-2%
COc1ccc(CN2C(=O)NC3(CCCCCC3)C2=O)cc1F,-16%,1%,-3%,3.1%,-17%,-6%,-5%,?
O=C(CNC(=O)c1ccc(S(=O)(=O)N2CCCC2)cc1)N/N=C/c1ccccc1,10%,-15%,?,0.5%,-8%,8%,2%,-4%
O=C(Nc1ccnn1C1CCN(Cc2ccc(OC(F)F)cc2)CC1)C1CCCC1,-25%,nt,?,nt,nt,9%,?,-9%
O=C(COc1cc2oc(=O)c3c(c2cc1Cl)CCC3)NCc1ccncc1,-29%,nt,nt,nt,0%,4%,nt,-11%
CCCOc1ccc(/C(O)=C2/C(=O)C(=O)N(CCN(C)C)C2c2ccc(O)c(OC)c2)cc1 (stereo not drawn),-16%,-11%,-7%,8.7%,-1%,2%,-13%&-13%,9%

# The listing continues:
SMILES,StopGo reporter,Cruzain noTriton,LASV entry inh,Cruzain Triton,SARS PLpro yeast,NS1 function inh,Marburg entry inh,RE007 growth inh
COc1ccc(CCNC(=O)c2cccc(S(=O)(=O)N3CCCC3)c2)cc1,13%,nt,-1%,nt,-6%,nt,-17%,-18%
CC(C)c1ccc(NC(=O)COC(=O)C2CCCCC2)cc1,2%,nt,12%,nt,-14%,nt,2%,25%
O=[n+]1c2c(n([O-])c3cc(Br)ccc31)CCC2,2%,-5%,-7%,-9.4%,3%,7%,16%,5%
O=c1c2cc(N3CCOCC3)ccc2[nH]c(=S)n1Cc1ccccc1Cl,-9%,nt,-3%[46.1 µM],nt,-1%,nt,0%[46.1 µM],11%
O=C(NCc1ccon1)c1ccc(OC2CCN(CCc3ccccc3)CC2)cc1,6%,nt,-20%[46.1 µM],nt,0%,3%,?,0%
CC(C(=O)NC1CCCC1)N(C(=O)c1ccc(-c2ccccc2)[nH]1)c1ccccc1F (stereo not drawn),?,16%,-23%,-2.8%,-16%,?,-30%,-9%
Cc1ccc(NC(=O)CN2CCc3cc4c(cc3C2)OCCCO4)cc1C,-1%,nt,?,nt,?,-31%,-17%[46.1 µM],-7%
O=C(O)c1ccc2c(=O)n3c(nc2c1)/C(=C/c1ccc(Cl)c(Cl)c1)CC3,-15%,nt,nt,nt,4%,2%,nt,5%
